StopGo FLuc: lowers the firefly signal of an FMDV 2A StopGo reporter; HEK cells with a luciferase reporter of 2A StopGo recoding; Potency, µM (highest dose often 57.5 µM), for the others: at the highest dose signal change, negative = less light; 0.23% of 120,000 active; AID 1745856; active = well fitted falling curve with a large enough effect; inconclusive = small, poorly fitted or top-dose-only effect; inactive = no such curve, though single readings can be large or run the other way; note: nearly all actives have a fitted effect of over 60% in size; overnight with compound
2A Renilla: lowers the Renilla signal of an FMDV 2A StopGo reporter; Potency, µM (top dose mostly 57.5 µM), inactives show top-dose signal change, negative = less light; HEK cells with a luciferase reporter of 2A StopGo recoding; 0.32% of 120,000 active; active means well fitted falling curve with a large enough effect; inconclusive means small, poorly fitted or top-dose-only effect; inactive means no such curve, though single readings can be large or run the other way; note: nearly all actives have a fitted effect of over 55% in size; overnight with compound
An asterisk follows results filed as active; [ ] = dose if it differs, or a comment. % is set by controls: 0 for no effect and ±100 for the full control effect; potency is the fitted concentration of half-maximal effect.

What do the screens show for `COc1cc(OC)c(C(=O)Nc2nc(C)c(C)s2)cc1OC`?
StopGo FLuc: 60%[activator]; 2A Renilla: inconclusive

How did CCOc1ccccc1NC(=O)c1cn(CC)c2ccccc12 do in these assays?
StopGo FLuc: 50%[activator]; 2A Renilla: 5%

Results for CN(C(=O)CCc1ncc(-c2ccc(F)cc2)o1)C1CCS(=O)(=O)C1 (stereo unspecified) ?
StopGo FLuc: 0%; 2A Renilla: 1%

What do the screens show for `CCOC(=O)c1c(C)oc2nc(C)nc(NC(C)c3ccccc3)c12` (stereo unspecified)?
StopGo FLuc: 13%; 2A Renilla: 9%

What do the screens show for `CCc1ccc(-c2nc(CS(=O)CC(=O)NCC(OC)OC)c(C)o2)cc1` (stereo unspecified)?
StopGo FLuc: 0%; 2A Renilla: 3%

How did Cc1cccc(N(C)C(=O)COC(=O)c2ccc(F)c(Cl)c2)c1 do in these assays?
StopGo FLuc: -4%; 2A Renilla: -9%

How did O=C1c2oc3ccccc3c(=O)c2C(c2ccccc2F)N1Cc1ccc2c(c1)OCO2 (stereo unspecified) do in these assays?
StopGo FLuc: -4%; 2A Renilla: -13%

What do the screens show for `Cc1ccc2oc(C(=O)Nc3ccc4c(c3)NC(=O)C(C)O4)cc(=O)c2c1` (stereo unspecified)?
StopGo FLuc: 4%; 2A Renilla: -8%

Results for O=C(NCCC(=O)N1CCCC(C(F)(F)F)C1)c1ccc(Cl)cc1 (stereo unspecified) ?
StopGo FLuc: -3%; 2A Renilla: 17%

What do the screens show for `COc1ccc(NC(=O)C2Cc3ccccc3N2C(=O)c2ccccc2)cc1OC` (stereo unspecified)?
StopGo FLuc: -19%; 2A Renilla: -19%

How did Cc1ccc2cccc(NC(=O)C(C)(C)Oc3ccc(Cl)cc3)c2n1 do in these assays?
StopGo FLuc: 2%; 2A Renilla: 10%

How did O=C(OCc1ccccc1)c1cccnc1 do in these assays?
StopGo FLuc: 8%; 2A Renilla: -3%[1.06 µM]

3 entries drawn at random from those above, as already listed:
Results for O=C(NCCC(=O)N1CCCC(C(F)(F)F)C1)c1ccc(Cl)cc1 (stereo unspecified) ?
StopGo FLuc: -3%; 2A Renilla: 17%

What do the screens show for `COc1cc(OC)c(C(=O)Nc2nc(C)c(C)s2)cc1OC`?
StopGo FLuc: 60%[activator]; 2A Renilla: inconclusive

How did Cc1ccc2cccc(NC(=O)C(C)(C)Oc3ccc(Cl)cc3)c2n1 do in these assays?
StopGo FLuc: 2%; 2A Renilla: 10%

Next section
Results for Cc1ccc(CN(C)C(=O)Cc2n[nH]c(=O)c3ccccc23)c(C)c1 ?
StopGo FLuc: 3%; 2A Renilla: 7%

What do the screens show for `CC(C)c1ccc(C(=O)NC(C)c2ccccc2F)cc1` (stereo unspecified)?
StopGo FLuc: 0%; 2A Renilla: 0%

Results for Cc1nn(-c2nc(-c3ccccc3)cc(C(F)(F)F)n2)c(C)c1Cl ?
StopGo FLuc: -17%; 2A Renilla: -13%

What do the screens show for `Nn1c(SCc2cccc(S(=O)(=O)N3CCOCC3)c2)nnc1-c1ccc(Cl)cc1`?
StopGo FLuc: -3%; 2A Renilla: 18%

What do the screens show for `CN1CCN(CCC(=O)Nc2ccc(Cl)cc2)CC1`?
StopGo FLuc: -15%; 2A Renilla: -12%

What do the screens show for `Cc1ccc(-c2cc(C(=O)Oc3cccc(Br)c3)no2)cc1`?
StopGo FLuc: 0%; 2A Renilla: 14%

What do the screens show for `CCCC1CCCN(C(=O)Cn2nc(C)c3ccccc3c2=O)CC1` (stereo unspecified)?
StopGo FLuc: -5%; 2A Renilla: -10%

What do the screens show for `CCCSc1ncc(Cl)c(C(=O)Nc2c(C(=O)Nc3ccccc3)oc3ccccc23)n1`?
StopGo FLuc: 0%; 2A Renilla: 2%

Results for Clc1ccc(-c2csc(NC3CCCC3)n2)c(Cl)c1 ?
StopGo FLuc: 224%[activator]; 2A Renilla: 5%

Results for O=C(COC(=O)c1cc2c(s1)CCCC2)Nc1ccc(Cl)cc1 ?
StopGo FLuc: -11%; 2A Renilla: -14%

How did COCCCNC(=O)CCc1ncc(-c2c(F)cccc2F)o1 do in these assays?
StopGo FLuc: 41%[activator]; 2A Renilla: 0%

Results for Cc1nsc(N)c1C(=O)OCc1csc(-c2cccc(Br)c2)n1 ?
StopGo FLuc: inconclusive; 2A Renilla: inconclusive

What do the screens show for `Cc1cc(C)cc(-n2c(SCC(=O)Nc3nnc(C)s3)nc3c([nH]c4ccccc43)c2=O)c1`?
StopGo FLuc: -4%; 2A Renilla: -8%

What do the screens show for `CC1(C)CC(NC(=O)C2CCCN(c3ncnc4nc[nH]c34)C2)CC(C)(C)N1` (stereo unspecified)?
StopGo FLuc: -2%; 2A Renilla: -9%

What do the screens show for `COc1ccc2cc(C(=O)Nc3ccccn3)c(C)nc2c1`?
StopGo FLuc: 58%[activator]; 2A Renilla: 3%

What do the screens show for `CCOc1ccccc1NC(=O)N1CCN(S(=O)(=O)c2ccc3c(ccn3C)c2)CC1`?
StopGo FLuc: 5%; 2A Renilla: 22%

How did COc1ccccc1N1CCN(S(=O)(=O)c2ccc(-c3coc(C)n3)cc2)CC1 do in these assays?
StopGo FLuc: 7%; 2A Renilla: -2%

What do the screens show for `CC1CC(=O)C(C)(C)N(C)C1` (stereo unspecified)?
StopGo FLuc: -7%; 2A Renilla: 0%

What do the screens show for `Cc1ccc(CCCOC(=O)CN2CCCC2)cc1`?
StopGo FLuc: 3%; 2A Renilla: -5%

Results for CCOC(=O)C1CCN(Cc2cc(=O)oc3cc(C)ccc23)CC1 ?
StopGo FLuc: 6%; 2A Renilla: -1%

How did CCOC(=O)c1ccccc1NC(=O)N1CCC(N2CCN(Cc3ccccc3)C(=O)C2=O)CC1 do in these assays?
StopGo FLuc: 6%; 2A Renilla: -4%

What do the screens show for `COC(=O)c1ccccc1NC(=O)c1ncoc1-c1ccco1`?
StopGo FLuc: 36%; 2A Renilla: 12%

Results for CSc1ccc(/C=C/C(=O)Nc2ccc(I)cc2C)cc1 ?
StopGo FLuc: 12%; 2A Renilla: -6%

What do the screens show for `COc1ccc(-c2ocnc2C(=O)Nc2ccc(C)cc2Cl)cc1`?
StopGo FLuc: 9%; 2A Renilla: -4%

How did Cc1nn(-c2ccc(N3CCCCC3)nn2)c(C)c1CCC(=O)NCc1ccc(Cl)cc1 do in these assays?
StopGo FLuc: inconclusive; 2A Renilla: 16%

How did CC1(C)CC(=O)c2cc(-c3nc(-c4ccc(Cl)cc4)cs3)c(=O)n(-c3cccc(F)c3)c2C1 do in these assays?
StopGo FLuc: 19%; 2A Renilla: -24%

What do the screens show for `O=C1NC2(CCN(S(=O)(=O)c3ccccc3)CC2)N=C1c1cccs1`?
StopGo FLuc: -11%; 2A Renilla: -2%

Results for O=C(/C=C/c1c(Cl)cccc1Cl)c1ccc(OC(F)F)cc1OC(F)F ?
StopGo FLuc: 12%; 2A Renilla: 71%[activator]

How did Cc1cn2c(=O)cc(COc3ccc(Cl)cc3)nc2s1 do in these assays?
StopGo FLuc: 130%[activator]; 2A Renilla: 4%

What do the screens show for `O=C1CN(C(=O)c2ccc(S(=O)(=O)N3CCCCC3)cc2)C(c2ccc(F)cc2)c2cc(Cl)ccc2N1` (stereo unspecified)?
StopGo FLuc: -26%; 2A Renilla: 12%

What do the screens show for `CN(C)CCCN(C(=O)COc1ccccc1)c1nc2ccc(F)cc2s1`?
StopGo FLuc: 48%[activator]; 2A Renilla: -5%

How did CCNC(c1ccccc1)c1ccccc1 do in these assays?
StopGo FLuc: -2%; 2A Renilla: 1%

What do the screens show for `COc1ccccc1C(=O)NCc1ccc(-c2nc3ncccc3o2)cc1`?
StopGo FLuc: 30%[activator]; 2A Renilla: 84%[activator]

How did CCOC(=O)CSc1nc2c(c(=O)[nH]c(=O)n2C)n1Cc1cccc(Br)c1 do in these assays?
StopGo FLuc: 17%; 2A Renilla: 8%

What do the screens show for `O=Cc1ccc(OCc2cccc(Cl)c2)cc1`?
StopGo FLuc: 172%[activator]; 2A Renilla: 4%

Results for COc1ccc(OC)c(S(=O)(=O)Nc2ccc(-c3ccc(N4CCC(C)CC4)nn3)cc2)c1 ?
StopGo FLuc: 135%[activator]; 2A Renilla: 222%[activator]

Results for COc1ccc(S(=O)(=O)N2CCc3ccccc32)cc1C(=O)OCC(=O)Nc1ccccc1 ?
StopGo FLuc: 10%; 2A Renilla: 14%

What do the screens show for `Cc1ccc(NC(=O)CSc2nccn2C2CCCC2)cc1Cl`?
StopGo FLuc: 117%[activator]; 2A Renilla: 39%[activator]

Results for O=C(CSc1nc2c([nH]c3ccccc32)c(=O)n1-c1ccc(F)cc1)NC1CCCCC1 ?
StopGo FLuc: inconclusive; 2A Renilla: -10%

How did CCOc1ccc(CN(C)CC(O)COc2ccc(C)cc2C)cc1OC (stereo unspecified) do in these assays?
StopGo FLuc: 0%; 2A Renilla: -7%

How did Cc1ccc(-n2ncc(C(=O)N3CCc4ccccc4C3)c2C2CCN(C(=O)OC(C)(C)C)CC2)cc1C do in these assays?
StopGo FLuc: -17%; 2A Renilla: -10%

What do the screens show for `CCC(CC)C(NC(=O)CCc1cccs1)c1ccccc1` (stereo unspecified)?
StopGo FLuc: 1%; 2A Renilla: 17%[1.06 µM]

What do the screens show for `CCn1nc(C(=O)OCC(N)=O)c2ccccc2c1=O`?
StopGo FLuc: -10%; 2A Renilla: -12%

Results for CCOC(=O)c1ccccc1NC(=O)Nc1cc2c(cc1N1CCCC1)n(C)c(=O)n2C ?
StopGo FLuc: 28%; 2A Renilla: -1%

Results for OC(CNCc1ccc(-c2ccccc2)cc1)c1ccccc1 (stereo unspecified) ?
StopGo FLuc: 60%[activator]; 2A Renilla: 35%[activator]

What do the screens show for `Cc1nn(C)c2c1c(-c1ccccc1)cc(=O)n2Cc1ccccc1Cl`?
StopGo FLuc: -12%; 2A Renilla: -6%

How did Cc1ccc(C(=O)Nc2cccc3ncccc23)cc1 do in these assays?
StopGo FLuc: 65%[activator]; 2A Renilla: 0%

Results for Cc1cccc(CNC(=O)CCCN2C(=O)CCn3nc(-c4cccn4C)cc32)c1 ?
StopGo FLuc: -9%; 2A Renilla: -13%

What do the screens show for `Cc1c(CC(=O)Nc2ccc(C(F)(F)F)cc2)c(=O)oc2cc(O)ccc12`?
StopGo FLuc: 5%; 2A Renilla: 36%

How did CCOC(=O)C(NC(=O)/C=C/c1ccccc1OC)C(=O)OCC do in these assays?
StopGo FLuc: inconclusive; 2A Renilla: -2%

Results for CN(C)C(=O)/C(=C\C=C\c1ccccc1)NC(=O)c1ccccc1 ?
StopGo FLuc: 59%[activator]; 2A Renilla: 31%

What do the screens show for `CCN(CC)c1cc2c(cc1F)c(=O)c(S(=O)(=O)c1cc(C)ccc1C)cn2Cc1ccccc1`?
StopGo FLuc: -14%; 2A Renilla: 4%

Results for CCN(CC)S(=O)(=O)c1ccc2c(c1)c(=O)c(C(=O)NCc1ccccc1OC)cn2C ?
StopGo FLuc: 0%; 2A Renilla: -17%

Results for O=C(Nc1ccccc1)C1CC(=O)n2c(nc3ccccc32)N1 (stereo unspecified) ?
StopGo FLuc: -4%; 2A Renilla: -12%

What do the screens show for `CCc1ccc(C(=O)COC(=O)c2ccc(C(=O)c3ccccc3)cc2)cc1`?
StopGo FLuc: 3%; 2A Renilla: -9%

What do the screens show for `COc1cccc(C(=O)N(Cc2cccc(F)c2)C2CCS(=O)(=O)C2)c1` (stereo unspecified)?
StopGo FLuc: 22%; 2A Renilla: -2%

Results for O=c1oc2ccccc2c(O)c1C(c1cccc(O)c1)c1c(O)c2ccccc2oc1=O ?
StopGo FLuc: 1%; 2A Renilla: 120%[activator]

What do the screens show for `Cc1cnc2c(S(=O)(=O)N3CCNC(=O)C3)cccc2c1`?
StopGo FLuc: 18%; 2A Renilla: 13%

How did S=C1NC2(CCCC2)N=C1c1ccc(Cl)cc1 do in these assays?
StopGo FLuc: 0%; 2A Renilla: 7%

What do the screens show for `COc1ccc(CCNC(=O)CCn2c(=O)c3ccccc3n(Cc3ccccc3F)c2=O)cc1OC`?
StopGo FLuc: 10%; 2A Renilla: -1%

Ordered by number of heavy atoms (falling): some entries from above.
What do the screens show for `CCN(CC)c1cc2c(cc1F)c(=O)c(S(=O)(=O)c1cc(C)ccc1C)cn2Cc1ccccc1`?
StopGo FLuc: -14%; 2A Renilla: 4%

What do the screens show for `CCc1ccc(C(=O)COC(=O)c2ccc(C(=O)c3ccccc3)cc2)cc1`?
StopGo FLuc: 3%; 2A Renilla: -9%

How did S=C1NC2(CCCC2)N=C1c1ccc(Cl)cc1 do in these assays?
StopGo FLuc: 0%; 2A Renilla: 7%

Continuation:
How did Cc1ccc(CN(C(=O)COc2cc(C)c(Cl)c(C)c2)c2ccccn2)o1 do in these assays?
StopGo FLuc: 7%; 2A Renilla: 31%[activator]

Results for Cc1ccc(-n2c(Cc3ccccc3)nnc2SCc2nc(-c3cccs3)no2)cc1C ?
StopGo FLuc: 5%; 2A Renilla: 94%[activator]

Results for Cc1ccc(NCc2cc3cc4c(cc3n(CC(=O)Nc3ccc(C)cc3)c2=O)OCCO4)cc1 ?
StopGo FLuc: 1%; 2A Renilla: -14%

Results for Cc1ccc2c(c1)C(c1ccccc1)N(C(=O)c1ccc(OC(C)C)cc1)CC(=O)N2 (stereo unspecified) ?
StopGo FLuc: 28%; 2A Renilla: 165%[activator]

What do the screens show for `Cc1ncc(-c2ccc(C)c(S(=O)(=O)Nc3cccc(Cl)c3)c2)o1`?
StopGo FLuc: -3%; 2A Renilla: 25%

How did CCCCN(c1ccccc1)c1ncnc2c1cnn2-c1ccc(Cl)cc1 do in these assays?
StopGo FLuc: 49%[activator]; 2A Renilla: -7%

What do the screens show for `N#Cc1ccccc1OCC(=O)NC(=O)NC1CCCC1`?
StopGo FLuc: 201%[activator]; 2A Renilla: 16%

Screening results (PubChem BioAssay)

Not all compounds are listed; count on the stated rates, not on these rows.
